gsp agonist: agonists of gsp mutant (McCune-Albright syndrome) | gsp mutant cells, cAMP HTRF, 30 min; control for the full effect not named in the record | Potency, µM (series often up to 76.9 µM), inactives show at the top dose activation (cAMP increase), hits mostly activators | 0.13% of 340,000 active; active = well fitted activation curve with a large enough effect; inconclusive = small, poorly fitted or top-dose-only effect, or another doubt; inactive = no such curve, though single readings can be large or run the other way; cell line not stated here;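 further: phosphodiesterase inhibitor Ro 20-1724 added with compounds to block cAMP breakdown; potency means the concentration at half of the fitted maximal effect; nearly all actives have a fitted effect of over 60% in size; about a fifth of the inactives were tested at one dose only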
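Cells in DMEM/10% FBS with G418 were pretreated with compounds in DMSO plus […] (300 uM stock) for 30 min at 37C. cAMP was measured by HTRF (cAMP-d2 plus anti-cAMP antibody-K) after 30 min at room temperature.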
CtBP-E1A inh: CtBP/E1A binding inhibition | activity change, % (concentration not given with the values) | AlphaScreen GST-E1A/His-CtBP binding, 1536-well; hits give low values; control for the full effect not named in the record | 0.49% of 340,000 active; in the data active means activity change below about -65%; inconclusive means about -30% to -65%; inactive means above about -30%; further: on the % scale 0 is the no-effect control and ±100 the full control effect
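Steps: dispense buffer (Tris pH 8.0, NaCl 300 mM, TCEP 1 mM, BSA, Tween 20); add 5X protein mix (GST-E1A, His-CtBP, 125 nM each); pin 23 nL compound; 2 h at 37 °C, dark; add 5X beads (50 ug/mL); 1 h; read.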
gsp antagonist: antagonizes gsp, the McCune-Albright syndrome mutation; gsp-mutant cells, cAMP HTRF, 30 min; control for the full effect not named in the record; Potency, µM (titrated, usually from 76.9 µM), without a hit: at the highest dose activity change, negative = inhibition, most hits filed as inhibitors; 0.4% of 340,000 active; AID 624288; active = falling curve of any shape with a large fitted effect; inconclusive = falling curve, mostly with a smaller effect; inactive = flat or rising curve; cell line not stated here;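 further: intracellular cAMP measured with PDE inhibitor Ro 20-1724 present during compound exposure; potency means the concentration at half of the fitted maximal effect; on the % scale 0 is the no-effect control and ±100 the full control effect; nearly all actives have a fitted effect of over 65% in size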
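G418-selected cells were plated in DMEM/10% FBS for 16-24 h at 37C, then treated with compounds plus the PDE inhibitor […] (300 uM solution added) for 30 min at 37C. Intracellular cAMP was measured by HTRF after 30 min lysis at room temperature.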
Menin MLL FP FL: menin-MLL binding inhibition, fluorescein peptide; Fluorescence polarization, fluorescein-MLL peptide displacement from menin; FP activity change, % at 61.4 µM; 290,000 tested, under 10 active; AID 1766; inconclusive = falling polarisation curve, or a change in total fluorescence; inactive = total fluorescence flat and polarisation flat or rising; no compound was filed as active; the % refers to the polarisation; negative = inhibition;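 further: % of control where 0% means no effect; inhibitors lower the polarisation; unlabelled MLL peptide was the positive control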
TRPV1 PAM: potentiators of human vanilloid receptor 1 (TRPV1) | potentiation, % at 8.33 µM | TRPV1-expressing cells, Fluo-8 calcium influx, capsaicin EC20 potentiation; host cell line not named in the record; control for the full effect not named in the record | Q8NER1 | 0.02% of 320,000 active; active means potentiation above 80%; inconclusive means 30% to 80%; inactive means below 30%; further: 0% is about no effect
Target sequence (Q8NER1 whole entry, looked up): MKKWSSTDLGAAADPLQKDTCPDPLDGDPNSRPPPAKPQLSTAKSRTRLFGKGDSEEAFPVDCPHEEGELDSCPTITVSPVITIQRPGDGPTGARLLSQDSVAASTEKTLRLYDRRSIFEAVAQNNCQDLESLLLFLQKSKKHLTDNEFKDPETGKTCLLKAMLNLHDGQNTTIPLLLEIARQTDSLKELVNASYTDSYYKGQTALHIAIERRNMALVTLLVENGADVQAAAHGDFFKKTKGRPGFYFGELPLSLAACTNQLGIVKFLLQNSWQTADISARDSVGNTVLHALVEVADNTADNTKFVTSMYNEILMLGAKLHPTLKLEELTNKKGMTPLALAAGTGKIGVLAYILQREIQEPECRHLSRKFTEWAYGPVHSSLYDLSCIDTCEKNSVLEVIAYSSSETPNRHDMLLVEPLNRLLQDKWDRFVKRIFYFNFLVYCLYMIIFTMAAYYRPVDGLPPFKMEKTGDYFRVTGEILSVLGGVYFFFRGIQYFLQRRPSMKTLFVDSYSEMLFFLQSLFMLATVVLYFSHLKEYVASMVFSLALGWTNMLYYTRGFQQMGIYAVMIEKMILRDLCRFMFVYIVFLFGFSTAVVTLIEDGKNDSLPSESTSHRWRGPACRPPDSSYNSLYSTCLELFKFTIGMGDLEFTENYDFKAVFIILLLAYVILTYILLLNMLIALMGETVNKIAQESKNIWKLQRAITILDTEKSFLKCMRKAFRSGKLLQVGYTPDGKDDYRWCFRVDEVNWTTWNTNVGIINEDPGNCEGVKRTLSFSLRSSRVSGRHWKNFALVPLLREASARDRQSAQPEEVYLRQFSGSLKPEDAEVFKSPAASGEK
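Cells expressing TRPV1 were dye-loaded with Fluo-8 and read kinetically: 10 s baseline, 3 min after compound (agonist portion), then 2 min after EC20 capsaicin (allosteric enhancer portion). Calcium-bound dye fluorescence at 480/520 nm.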
Sfp inh: inhibitors of Bacillus subtilis Sfp phosphopantetheinyl transferase; Q9F4F7; Biochemical Sfp PPTase activity, qHTS; Potency, µM, without a hit: max response, negative = inhibition, most hits filed as inhibitors; 3.5% of 310,000 active; AID 1490; active means well fitted inhibition curve with a large enough effect; inconclusive means small, poorly fitted or top-dose-only effect, or another doubt; inactive means no such curve, though single readings can be large or run the other way;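 further: the enzyme is Sfp with the accession as filed and its product quenches rhodamine fluorescence; potency means the concentration at half of the fitted maximal effect; 0% = enzyme reaction without inhibitor and -100% = no enzyme wells; top concentration of the series not given in the record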
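Step 1, compound plus 15 nM Sfp-PPTase, 15 min, room temperature. Step 2, add rhodamine-CoA (5 uM) and BHQ-2-YbbR (12.5 uM). Step 3, read 525/598 nm fluorescence at 0 and 30 min.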
ClpP mod: qHTS Assay for Activators of ClpP; ATP-dependent Clp protease proteolytic subunit (Bacillus subtilis (strain 168)), P80244; purified B. subtilis ClpP, FRET peptide cleavage, 20 min; Potency, µM (top dose mostly 57.5 µM), for the others: top-dose activity change, negative = active; 1.9% of 340,000 active; active = well fitted falling curve with a large enough effect; inconclusive = small, poorly fitted or top-dose-only effect; inactive = no such curve, though single readings can be large or run the other way; further: potency means the concentration at half of the fitted maximal effect; the source files actives as falling curves though it sought activators and does not explain the sign; nearly all actives have a fitted effect of over 65% in size; many hits overshoot -100%
Target sequence (P80244 whole entry, looked up): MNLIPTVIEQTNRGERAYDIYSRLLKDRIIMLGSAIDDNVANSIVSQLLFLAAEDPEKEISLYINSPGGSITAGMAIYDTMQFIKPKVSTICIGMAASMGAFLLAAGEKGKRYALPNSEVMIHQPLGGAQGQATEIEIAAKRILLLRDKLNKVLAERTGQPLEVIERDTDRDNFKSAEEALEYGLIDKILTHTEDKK
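FRET quenching reversal measured ClpP activation: 10 microg/mL B. subtilis ClpP at pH 8 with the FRET-FV decapeptide, read at 430 nm after 320 nm excitation. The 20-min minus 0-min signal was scaled between DMSO/no-enzyme wells and ADEP (5.8 microM final).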
* hit, by the source's call; ? = inconclusive; . = no result given; & = joins results of further samples; [ ] = remark or other dose.

Values run as follows: gsp agonist | CtBP-E1A inh | gsp antagonist | Menin MLL FP FL | TRPV1 PAM | Sfp inh | ClpP mod
CCCCn1nnc(NC(=S)NC(=O)c2cccs2)n1
  0% | 8 | 1% | 5.8 | 10 | ? | 0.8%
NC(=O)C1CCN(S(=O)(=O)c2cc3c4c(c2)CCN4C(=O)CC3)CC1
  -45%[inhibitor] | 10 | 2% | . | -21 | . | -1.5%
CCOC(=O)C1C(c2cccnc2)NC(=O)NC1(O)C(F)(F)F (stereo not given)
  -59%[inhibitor] | 8 | 8% | -3.3 | -4 | 3% | .
CCOC(=O)Cc1nnc(NC(=O)CSc2nnc3c4ccccc4n(C(C)C)c3n2)s1
  11% | -11 | 10% | 1.6 | -12 | -15% | ?
CCOc1ccc(C(=O)CC(C(=O)O)N2CCN(Cc3ccccc3)CC2)cc1 (stereo not given)
  -8% | -15 | -10% | . | 3 | . | -2.3%
O=[N+]([O-])c1cccc(S(=O)(=O)NCCCn2ccnc2)c1
  -10%[15.4 µM] | -1 | 5% | -1.9 | 17 | 12% | -1.1%
Cc1cc2ncn(/N=C/c3ccc(-c4ccccc4)o3)c2cc1C
  4% | -2 | -6% | 2.2 | 1 | -40% | -12%
Cc1cc(-c2nnc(-c3ccccc3)c(-c3ccccc3)n2)c(C)o1
  2% | -10 | -3% | 6.5 | -4 | 14µM* | -1.1%
O=C(COC(=O)CC1CCCC1)Nc1ccc(OC(F)F)cc1
  -6% | 15 | 7% | -0.6 | 7 | 11% | .
NC1=NC(c2ccccc2Cl)n2c(nc3ccccc32)N1 (stereo not given)
  -58%[inhibitor] | -7 | -14% | -1.6 | 5 | -13% | -0.6%
OCCn1nc2c3ccccc3nc-2n(-c2ccccc2)c1=S
  13% | 0 | 8% | 0.8 | 5 | 50µM* | -11%
O=C1c2ccccc2C(=O)N1CCCCSc1nc2ccccc2c(=O)n1CCCN1CCOCC1
  ? | -6 | ? | 2.2 | -21 | -14% | .
Cc1ccc(/C=N/NC(=O)c2cccc(S(=O)(=O)Nc3cccc(Cl)c3)c2)o1
  -113%[inhibitor] | . | 6% | -6.2 | -1 | 2% | -21%
COc1ccc(-c2cc(CCCC(=O)N3CCN(c4ccc(OC)cc4)CC3)no2)cc1
  -20% | -1 | ? | 0.8 | 7 | 5% | -0.2%
COc1cccc(CNC(=O)CCC2CCCN(C(=O)c3cc(C4CC4)[nH]n3)C2)c1 (stereo not given)
  ? | 13 | ? | -1.3 | 7 | -3% | 1.0%
Cc1cc(Nc2ccc(C)c(Br)c2)n2nc(C)nc2n1
  ? | -1 | 0% | 2.8 | -4 | -8% | 1.7%
Nc1nc2nc(-c3ccc(F)cc3)cc(C(F)(F)F)n2n1
  -6%[15.4 µM] | 16 | 10% | -9.0 | 0 | 16% | -0.1%
Cc1ccc(NC(=O)CN(C)C(=O)CSc2ccccc2F)cc1
  -10%[15.4 µM] | -4 | -4% | . | . | . | 1.1%
CCCC(C)c1nnc(NC(=O)COc2ccc3c(c2)OCO3)s1 (stereo not given)
  -25%[15.4 µM] | -1 | -4% | 0.0 | -12 | -7% | .
COc1ccc(-n2c(SCC(=O)NNC(=O)c3ccccc3C)nnc2-c2ccncc2)cc1
  -32%[inhibitor] | 1 | -6% | 7.9 | 1 | 7% | -0.6%
COc1cccc(CNCC(=O)Nc2ccc(N3CCOCC3)cc2)c1
  ? | 5 | -7% | -0.7 | 3 | -18% | 0.3%
CCOC(=O)C1(C#N)Cc2ccccc2C1
  1%[15.4 µM] | 5 | 0% | . | . | . | -1.4%
C=CCOc1ccc(CNc2nccs2)cc1OC
  0% | -4 | 15% | -0.6 | ? | -11% | 0.2%
O=C(N[C@@H](Cc1ccccc1)C(=O)NCc1ccc(F)cc1)C1CCNCC1
  6% | . | 1% | -1.4 | 3 | 19% | -0.7%
CCS(=O)c1ccccc1C(=O)OCC(=O)Nc1ccc2ccccc2c1 (stereo not given)
  0% | 2 | -23% | . | . | . | -0.2%
O=C1c2ccccc2C(=O)N1c1ccccc1
  . | 8 | -6% | . | . | . | 0.0%
CCCCNC(=O)CCC(=O)NNc1nc2ccccc2c2nc(C)nn12
  1% | -19 | 10% | -1.0 | -26 | 24% | -1.1%&-2.0%
CC(NC(=O)Cc1ccccc1F)c1ccc(F)cc1 (stereo not given)
  5%[15.4 µM] | . | 9% | -1.1 | -26 | 16% | .
Cc1ccc(-c2nc(Nc3ccccc3)n[nH]2)cc1
  -12% | -1 | -15% | 0.9 | -2 | 6% | -7.9%
COc1ccc(-n2c(-c3ccccc3)nc(=S)c3c2CCCC3)cc1
  ? | 10 | 0% | -0.1 | 7 | 0% | 3.5%

Further compounds follow.
Molecule,gsp agonist,CtBP-E1A inh,gsp antagonist,Menin MLL FP FL,TRPV1 PAM,Sfp inh,ClpP mod
O=C(Nn1cnnc1)C(c1ccccc1)c1ccccc1,23%,3,4%,1.4,12,21%,6.1%
CCC(CO)Oc1cc(NC(=O)Cc2ccccc2F)c2ncn(C(C)C)c2c1 (stereo not given),-3%,4,-7%,.,.,.,1.2%
CCN1C(=O)c2ccc(C(=O)NCc3ccco3)cc2C1=O,-1%[15.4 µM],0,6%,-2.0,-25,7%,0.2%
COc1ccc(OCCC(=O)NC2CCCCC2)cc1,19%,3,7%,-0.4,-6,7%,.
O=C(O)C1C2C=CC(O2)C1C(=O)Nc1ccccn1 (stereo not given),6%,-8,15%,.,.,.,.
Cc1onc(-c2ccccc2)c1C(=O)OCC(=O)NC(C)c1ccc(Cl)cc1 (stereo not given),-36%[inhibitor],0,-12%,.,-8,.,0.7%
NC1=NC(=Nc2cccc(S(N)(=O)=O)c2)c2ccccc21,-9%,.,4%,1.6,0,0%,-1.0%
CCOc1ccc(S(=O)(=O)N2CCCC2)cc1,-4%,7,6%,4.0,-25,8%,-1.3%
Cc1[nH]nc(-c2ccc(O)c(C)c2O)c1-c1cnn(-c2ccccc2)c1,-66%[inhibitor],-27,-3%,4.3,17,22%,-4.1%
CC(CNC(=O)CN1C(=O)NC2(CCCCC2)C1=O)c1ccccc1 (stereo not given),-3%,2,7%,.,-9,.,1.1%
COc1ccc(NC(=O)CN(C)C(=O)C(C)Oc2ccc(Br)cc2)cc1 (stereo not given),-35%[inhibitor],5,18%,.,-8,.,1.0%
Cc1ccc(C(=O)N2CC(C)SC2=Nc2cccc(S(=O)(=O)N(C)C)c2)cc1 (stereo not given),13%[15.4 µM],8,-22%,-0.1,0,-2%,-1.1%
O=C(c1ccc(Cl)cc1)C(CN1CCCCC1)c1ccccc1 (stereo not given),-1%[15.4 µM],1,-4%,-1.6,8,-29%,.
COc1cc2c(cc1NC(=O)Nc1ccccc1)oc1ccccc12,?,-6,?,7.0,-6,21%,28µM*
Cc1occc1-c1nnc(SCc2cc(=O)n3cc(Br)ccc3n2)n1C,?,-5,16%,-0.6,-24,-20%,-12%
COc1cc(CN(C2CCCCC2C)S(=O)(=O)c2ccc(S(=O)(=O)NC3CC3)cc2)cc(OC)c1OC (stereo not given),4%,-6,-20%,4.3,-5,12%,-1.1%
O=C(CN1C(=O)NC2(CCc3ccccc32)C1=O)Nc1ccc(Br)cc1F (stereo not given),-88%[inhibitor],-18,12%,.,-15,.,1.4%
O=C(CN1CCN(c2nc(-c3ccccc3)cs2)CC1)NNC(=O)c1ccco1,-3%[15.4 µM],-1,-5%,-0.5,16,16%,0.7%
O=C(/N=C1/c2ccccc2CN1c1ccccc1)Nc1ccccc1,11%,-12,-11%,0.8,7,1%,1.6%
COc1ccc2c(CC#N)c[nH]c2c1,-6%[15.4 µM],11,2%,-0.9,7,7%,0.5%
CCCOc1ccc(N2C(=O)CC(SCc3nc4ccccc4[nH]3)C2=O)cc1 (stereo not given),-36%[inhibitor],-9,-2%,-0.4,-24,?,-1.2%

Entries of single compounds as entered above. Values in the order: gsp agonist	CtBP-E1A inh	gsp antagonist	Menin MLL FP FL	TRPV1 PAM	Sfp inh	ClpP mod
`CCCOc1ccc(N2C(=O)CC(SCc3nc4ccccc4[nH]3)C2=O)cc1` (stereo not given) as listed: -36%[inhibitor]	-9	-2%	-0.4	-24	?	-1.2%
`COc1cc(CN(C2CCCCC2C)S(=O)(=O)c2ccc(S(=O)(=O)NC3CC3)cc2)cc(OC)c1OC` (stereo not given) as listed: 4%	-6	-20%	4.3	-5	12%	-1.1%
`Cc1ccc(C(=O)N2CC(C)SC2=Nc2cccc(S(=O)(=O)N(C)C)c2)cc1` (stereo not given) as listed: 13%[15.4 µM]	8	-22%	-0.1	0	-2%	-1.1%
`O=C(/N=C1/c2ccccc2CN1c1ccccc1)Nc1ccccc1` as listed: 11%	-12	-11%	0.8	7	1%	1.6%
`O=C(CN1CCN(c2nc(-c3ccccc3)cs2)CC1)NNC(=O)c1ccco1` as listed: -3%[15.4 µM]	-1	-5%	-0.5	16	16%	0.7%

Compound activity: PubChem, National Center for Advancing Translational Sciences (NCATS)
